Source: PubChem BioAssay
VDR inh: Inhibitors of the vitamin D receptor (VDR): qHTS | AID 504847, 2011 | Potency, µM, for inactives: max response, negative = inhibition, hits mostly inhibitors | VDR-SRC2-3 peptide fluorescence polarization, 2 h | Vitamin D3 receptor (Homo sapiens), P11473 | 400,000 tested, 0.93% active; active = well fitted inhibition curve with a large enough effect; inconclusive = small, poorly fitted or top-dose-only effect, or another doubt; inactive = no such curve, though single readings can be large or run the other way; also: series mostly up to about 120 µM
Target sequence (P11473 whole entry, looked up): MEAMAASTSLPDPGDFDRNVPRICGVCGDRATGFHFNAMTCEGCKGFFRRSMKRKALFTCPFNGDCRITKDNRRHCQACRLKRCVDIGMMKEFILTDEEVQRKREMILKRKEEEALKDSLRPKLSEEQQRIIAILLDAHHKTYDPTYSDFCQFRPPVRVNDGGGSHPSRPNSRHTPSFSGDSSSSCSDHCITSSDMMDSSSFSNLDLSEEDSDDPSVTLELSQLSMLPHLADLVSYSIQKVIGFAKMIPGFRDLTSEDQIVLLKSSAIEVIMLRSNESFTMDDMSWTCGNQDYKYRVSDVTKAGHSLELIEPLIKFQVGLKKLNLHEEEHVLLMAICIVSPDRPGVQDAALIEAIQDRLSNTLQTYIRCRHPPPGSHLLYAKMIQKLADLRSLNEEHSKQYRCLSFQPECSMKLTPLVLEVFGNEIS
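After 23 nl compound addition and a short centrifugation, plates sat for 2 hours at ambient temperature; polarization of fluorescence then indicated loss of VDR binding to peptide SRC2-3.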
* = called active by the depositor; ? = inconclusive; & = joins results of further samples. % is scaled to controls: 0 for no effect and ±100 for the full control effect; potency is read from the fitted curve at half-maximal effect. A portion of the library, so the mix of outcomes need not match the whole.

structure | VDR inh
CCCC(c1nnnn1Cc1ccccc1)N1CCN(c2ccccc2OC)CC1 (stereo not drawn) | 10%
COc1ccccc1CNC(=O)c1cc2c(-c3ccc(Cl)cc3)nn(C)c2s1 | 2%
CCN(CC(=O)Nc1c(F)cccc1F)C(=O)c1ccc(S(=O)(=O)N2CCCC2)cc1 | -8%
COc1cccc(C(=O)NCC(C)(C)SCc2ccc(F)cc2)c1 | 1%
Cc1noc(C)c1COC(=O)[C@@H](NC(=O)c1ccccc1Cl)C(C)C | 7%
CCCn1c(SCC(=O)O)nc2ccccc21 | 1%
O=C(Nc1cccc(F)c1)Nc1ccccn1 | -12%
CC/C(=N/NC(=O)c1ccccc1)c1ccc(OCCN2CCOCC2)cc1 | -10%
Cc1coc2c(O)cc3c(c12)OC1(N2CCCCC2)C(=O)NCCCC31 (stereo not drawn) | ?
COc1ccc(NC(=S)Nc2ccc(OCc3ccccc3)cc2)c(OC)c1 | -29%
COc1ccc(C(=O)N(Cc2ccc(N(C)C)cc2)C2CCS(=O)(=O)C2)cc1 (stereo not drawn) | 2%
Cc1c(NS(=O)(=O)c2ccc(F)cc2)c(=O)n(-c2ccccc2)n1C | -3%
CC(=O)N(Cc1ccccn1)Cc1ccco1 | -22%
CN(C)S(=O)(=O)N1CCN(Cc2ccccc2)CC1 | -7%
COc1ccc(Oc2c(Cl)cnn(-c3ccc(F)cc3)c2=O)cc1 | -2%
S=C1NCCN1CC1CCN(CC2CCCC2)CC1 | -16%
COc1cc(OC)cc(C(=O)NCC(=O)OCc2nc3ccccc3s2)c1 | -12%
CCOC(=O)N1CCN(Cc2ccccn2)CC1 | -2%
O=c1[nH]c(NCCO)nc2ncn(Cc3ccccc3)c12 | 7%
O=C(Nc1cc(S(=O)(=O)N2CCOCC2)ccc1N1CCCC1)c1cc(=O)[nH]c2ccccc12 | -18%
CCOC(=O)c1ccc(NC(=O)c2cc3c(s2)CCC3)cc1 | -7%
COc1ccc(CNC(=O)C2=CC(c3cccc(OC)c3)=NS(=O)(=O)N2C)cc1 | 7%
COc1cccc(-c2c(C(=O)N/N=C(\C)c3ccncc3)nnn2-c2nonc2N)c1 | -8%
COc1ccccc1C1c2ccc3ccccc3c2Oc2ncn(CCN(C)C)c(=N)c21 (stereo not drawn) | -5%
CC(=O)c1c(C)nc2ccc(Br)cc2c1-c1ccccc1 | 6%
NC(=O)C1CCN(Cc2nc3cc(Cl)ccc3c(=O)[nH]2)CC1 | -3%
CCOC(=O)C1(CC2CC2)CCN(C(=O)c2cc(OC)nc3ccccc23)CC1 | -2%
Cc1ccc(F)cc1NC(=O)c1cccc(N(C)C)c1 | -5%
CC(C)C[C@H](NC(=O)N1CCn2c1nc1ccccc12)C(=O)NC1CCCCC1 | -9%
COc1ccc(Br)cc1[C@H]1[C@@H]2C=CCC[C@@]2(C)C(=O)N1Cc1ccccc1 | -27%
CCOc1ccc2nc(NC(=O)Cn3[nH]c(=O)c4ccccc4c3=O)sc2c1 | -14%
O=C(CSC1=Nc2ccccc2C2=NC(Cc3ccccc3)C(=O)N12)Nc1ccccc1C(F)(F)F (stereo not drawn) | 4%
COCCOCCOCCC(=O)NC1CC2CCC1(C)C2(C)C (stereo not drawn) | 9%
COc1cc(Cl)cc(C2NC(=S)NC(c3ccccc3)=C2C(C)=O)c1OCC(=O)O (stereo not drawn) | 5%
COc1ccc2c(c1)c1c(c(=O)n(Cc3ccccc3)c(=O)n1Cc1ccccc1)n2C | 13%
CCc1cccc(NC(=O)CCNS(=O)(=O)c2cccc3nonc23)c1 | 8%&-22%
CCN1CCN(Cc2ccc(NC(=O)c3ccc(C)c(NC(=O)c4cc(-c5ccc(Br)cc5)n[nH]4)c3)cc2C(F)(F)F)CC1 | 7%
CCC(CO)Nc1ncnc2onc(-c3ccc(F)cc3)c12 (stereo not drawn) | -9%
O=C(Cc1ccc2ccccc2c1)NC(Cc1ccccc1)C(=O)O (stereo not drawn) | 7%
CC(OC(=O)C1CCN(S(=O)(=O)c2ccc3c(c2)OCCO3)CC1)C(=O)NC1(C#N)CCCCC1 (stereo not drawn) | 7%
COC(=O)Cc1sc(-c2ccccn2)nc1-c1ccccc1 | 25µM*
COc1ccccc1OCCCCn1c(-c2ccc(Cl)cc2)nc2ccccc2c1=O | -10%
COc1ccc2[nH]cc(CCNc3nc(-c4ccc(N(C)C)cc4)nc4ccccc34)c2c1 | -14%
Cc1ccccc1NC(=O)COC(=O)C1=COCCO1 | 4%
Cc1cccc2nc(CSc3nc4ccccc4[nH]3)cn12 | 1%
CC(C)(C)c1ccc(-c2cc(C(=O)NNC(=O)Nc3ccccc3)c3ccccc3n2)cc1 | -9%
CCc1cccc(NC(=O)Cc2cn(C)c3ccccc23)c1 | 17%
CCn1cnc2c1c(=O)n(CC(=O)NN)c(=O)n2Cc1ccccc1 | -13%
CC(=O)NC(Nc1c(C)n(C)n(-c2ccccc2)c1=O)C(Cl)(Cl)Cl (stereo not drawn) | 2%
CC1(C)CC(=O)c2cc(OCC(=O)NCc3cccnc3)ccc2O1 | -2%

The list goes on:
structure | VDR inh
CCc1ccccc1NC(=O)N(C)CCc1c(C)nn(C)c1C | 1%
O=C(Nc1ccccc1)C1=C[C@H](c2ccc3c(c2)OCO3)C[C@H](OCCCCO)O1 | -1%
COc1ccc2c(CC(=O)Nc3c(C)n(C)n(-c4ccccc4)c3=O)coc2c1 | -2%
CCn1ccc(=O)c2cc3c(cc21)OCO3 | 10%
COc1ccc2oc(C(=O)OC(C)C(=O)NC3(C#N)CCCCC3)c(C)c2c1 (stereo not drawn) | -4%
Cn1c(=O)[nH]c(=O)c2c1nc(N1CCOCC1)n2CCSc1nnnn1-c1ccccc1 | -15%
CCOc1cc(/C=N/n2cnnc2)cc(Br)c1O | -1%
Cc1oc(=O)c(NC(=O)c2ccccc2)cc1C(=O)c1ccccc1 | 18µM*
COc1cccc(N2CCN(C(=O)CN3C(=O)NC4(CCCC4)C3=O)CC2)c1 | 8%
C#CC1CCCCC1NC(=O)Nc1cnccc1C(F)(F)F (stereo not drawn) | -1%
Cc1ccccc1-c1cccc([C@@H]2C[C@H]3[C@H](CON3C)CN2Cc2cc(Cl)cc(Cl)c2)c1 | 0%
O=c1ccccn1Cc1ccccc1F | 7%
COc1ccc(C(=O)Nc2ccnn2C2CCN(Cc3ccn[nH]3)CC2)cc1 | -1%
COc1ccc(CCN(C)C(=O)c2c(C)nn(CC(C)C)c2Cl)cc1OC | -6%
O=C(CNc1cccc(C(F)(F)F)c1)N/N=C/C1CCCCC1 | 2%
O=C(Nc1cccnc1N1CCOCC1)c1ccco1 | 0%
COc1ccc(N(C)S(=O)(=O)c2cccc(C(=O)Nc3nc(C)cs3)c2)cc1 | 14%
COc1ccc(-c2noc(CNC(=O)Nc3ccc(F)cc3)n2)cc1 | -20%
Cc1cccc(NC(=O)CSc2nnnn2-c2cccnc2)c1 | 1%
Cc1ccc(NC(=O)CSc2nc3c(c(=O)n(C)c(=O)n3C)n2C)cc1 | 15%

Brought forward from above: 4 compounds; new compounds follow.
structure | VDR inh
COc1ccc(N(C)S(=O)(=O)c2cccc(C(=O)Nc3nc(C)cs3)c2)cc1 | 14%
COc1ccc(-c2noc(CNC(=O)Nc3ccc(F)cc3)n2)cc1 | -20%
Cc1cccc(NC(=O)CSc2nnnn2-c2cccnc2)c1 | 1%
Cc1ccc(NC(=O)CSc2nc3c(c(=O)n(C)c(=O)n3C)n2C)cc1 | 15%
C=C1C(=O)c2sccc2C(c2ccc(OC)c(OC)c2)C1COC(C)=O (stereo not drawn) | ?
COC(=O)CCC(=O)NC(=S)Nc1ccc(S(=O)(=O)Nc2cc(C)on2)cc1 | -11%
Cc1ccc(Nc2ncnc3nc[nH]c23)cc1Cl | -10%
CCN1C(=O)c2cccc3c(S(=O)(=O)Nc4ccccn4)ccc1c23 | -8%
CC(OC(=O)Cn1[nH]c(=O)c2ccccc2c1=O)C(=O)Nc1ccccc1[N+](=O)[O-] (stereo not drawn) | -9%
COc1ccc(C(=O)/C=C/c2ccc(O)cc2)c2c1CC(O)C(C)(C)O2 (stereo not drawn) | 3%
CC[C@@]12C(=O)N(c3cccc(Br)c3)C(=O)N1[C@H](c1ccc(F)cc1)[C@@H]1C(=O)N(C3CCCCC3)C(=O)[C@@H]12 | -11%
COc1ccc(CN2COc3ccc4c(oc(=O)c5ccccc54)c3C2)cc1OC | 4%
COc1cccc(N2CCN(C(=O)CN3C(=O)NC(C)(c4ccc5ccccc5c4)C3=O)CC2)c1 (stereo not drawn) | 20%
Cc1nc2scc(C)n2c(=O)c1S(=O)(=O)N1CCN(c2cccc(C(F)(F)F)c2)CC1 | -5%&-12%
COc1ccc(Cn2cc(S(=O)(=O)c3ccc(C)cc3)c(=O)c3cc(F)ccc32)cc1 | 9%
CC1Sc2ccc(S(=O)(=O)CCC(=O)NC(C)c3ccccc3)cc2NC1=O (stereo not drawn) | -8%
O=C1CCCc2c1nc(-c1cccc(Cl)c1)n2O | 3%
CCc1ccc(Cc2cnc(NC(=O)c3ccc4c(c3)CC(c3ccccc3)OC4=O)s2)cc1 (stereo not drawn) | 5%
Cc1nc2sccn2c(=O)c1S(=O)(=O)NCC(C)c1ccccc1 (stereo not drawn) | 8%
CCCCNC(=O)C1CCCN(S(=O)(=O)c2c(C)noc2/C=C/c2cccs2)C1 (stereo not drawn) | 7%
Cn1nc(-c2ccc(Cl)cc2)c2cc(C(=O)NCCN3CCOCC3)sc21 | -21%
CCn1cc(C(=O)N[C@@H](CCSC)C(=O)NCCCO)c(=O)c2cc3c(cc21)OCO3 | -7%
CCCC(=O)N(CCc1ccc(OC)cc1)Cc1nc2ccccc2c(=O)[nH]1 | -6%
COc1cc2c(=O)n(CC3CCCO3)c(=O)n(CC(=O)Nc3ccc(F)cc3F)c2cc1OC (stereo not drawn) | -20%
Cc1occc1C(=O)NC1CCCc2ccccc21 (stereo not drawn) | 8%
COc1ccc(-c2c(C#N)c(SCC(=O)Nc3ccccc3)nc3c2CCCC3)cc1 | -5%
COc1ccc(-c2[nH]ncc2CN2CCCN(C(=O)c3ccco3)CC2)cc1F | -11%
CCN(C[C@H]1N[C@@](C)(C(=O)OC)[C@H]2C(=O)N(C)C(=O)[C@@H]12)C(=O)COC | 3%
COC(=O)c1cc2oc(C)cc2n1Cc1ccc(C)cc1 | 0%
CC(C)Oc1ccc(CNC(=O)c2ccc3nc(Cc4ccccc4)oc3c2)cc1 | 14%
O=C1/C(=C/c2ccc(O)cc2)COc2ccccc21 | ?
CCn1nnc(-c2ccccc2NC(=O)c2cnccn2)n1 | 1%
O=C(NCCc1ccccc1)C1CC(=O)N(C2CCCCC2)C1 (stereo not drawn) | 16%
COc1ccccc1CNS(=O)(=O)CCNC(=O)c1ccccc1 | 9%
O=C(Cc1ccccc1)NCC(=O)Nc1ccc(OC(F)(F)F)cc1 | 19%
CCN1CCN(S(=O)(=O)c2ccc(Cl)c(C(=O)Oc3ccc(CC(=O)OC)cc3)c2)CC1 | -25%
O=C(c1cccc(-n2cnnn2)c1)N1CCOCC1 | -6%
O=C(Cn1sc2ccccc2c1=O)NC12CC3CC(CC(C3)C1)C2 | ?
O=C(O)CCN1CCN(S(=O)(=O)c2ccc3ccccc3c2)CC1 | -28%
O=C(Cn1ncc2c3ccccc3n(Cc3ccccc3F)c2c1=O)NC1CCCCCC1 | 11%
CCCNC(=O)N1CCN(C(=O)NCCC)CC1 | -16%
CCc1[nH]nc(C(=O)N/N=C/c2ccncc2)c1C | 8%
CCOc1ccc2nc(N3CCCC(C(=O)NCCCN4CCCCC4)C3)sc2c1 (stereo not drawn) | 6%
CCn1c(/C=N/NC(=O)c2ccc(OC)cc2)nc2ccccc21 | -9%

Structures above printed as active in VDR inh:
structure | VDR inh
COC(=O)Cc1sc(-c2ccccn2)nc1-c1ccccc1 | 25µM*
Cc1oc(=O)c(NC(=O)c2ccccc2)cc1C(=O)c1ccccc1 | 18µM*

Continued:
structure | VDR inh
C=CCC[C@H](Cc1ccc(F)cc1)C(=O)OC[C@@H](C)NC(=O)[C@H](CC=C)CC(=O)N(CCO)Cc1ccccc1 | 8%
O=C(N[C@H]1C/C=C\C[C@H](CC(=O)N(CCO)Cc2ccccc2)C(=O)NC[C@H](c2ccccc2)OC1=O)OCC1c2ccccc2-c2ccccc21 | -9%
COc1ccc(S(=O)(=O)N2CCN(c3ccccc3)CC2)cc1-c1noc(C)n1 | 0%
Cc1cc(C(=O)CCC(=O)Nc2ncccc2C)c(C)s1 | -14%
CCOC(=O)C1CCN(C(=O)CCc2ccccc2)CC1 | -23%
O=C1CSC(c2cccnc2)N1Cc1cccnc1 (stereo not drawn) | -10%
CCC(C(=O)NCCCN1CCCCCC1)n1nc(C)c2sc3ccccc3c2c1=O (stereo not drawn) | 8%
O=c1[nH]c(Cc2ccccn2)nc2scc(-c3ccc(Cl)cc3)c12 | -15%
Cc1cccc(N(C(=O)c2sc(C)nc2C)C(C(=O)NCc2ccco2)c2ccccc2)c1 (stereo not drawn) | 0%
CCOc1ccc(S(=O)(=O)NCc2cccnc2)cc1C(C)C | -7%
CCN(CC(=O)Nc1ccc(Br)cc1F)CC(=O)NC1CCS(=O)(=O)C1 (stereo not drawn) | ?
CC(=O)Nc1ccc(NC(=O)Cc2sc(-c3cccnc3)nc2-c2ccc(C)cc2)cc1 | 9%
CCOC(=O)c1sc2ccc(S(=O)(=O)N3CCCCC3)cc2c1N | 1%
